NPYLR7 agonist: activates Aedes aegypti NPYLR7 receptor; HEK293T NPYLR7/Galpha15, GCaMP6s calcium fluorescence; activation, % at 10 µM; AID 1259423; 0.15% of 270,000 active; in the data active = activation above about 40%;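 note: 0% = vehicle and 100% = reference agonist at the receptor; some compounds past the cut are filed as inactive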
NPYLR7 agonist max-min: recorded beside NPYLR7 agonist, whose call it bears; activation, %; measured here: Max-Min RFU normalised activation; some inactives read as strong as hits;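 span of the calcium signal over five minutes; 0% = vehicle and 100% = native peptide agonist; compound fluorescence can raise it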
Numbers without * were called inactive; & = joins results of further samples. Some of the compounds tested, so the mix of outcomes need not match the whole.

SMILES	NPYLR7 agonist	NPYLR7 agonist max-min
Cc1ccc2nc(-c3ccccc3C)c(NC(=O)CCC3CCCC3)n2c1	-4	-4
C/C=C/COC(=O)C1=C(C)NC(=O)NC1c1ccc([N+](=O)[O-])cc1 (stereo not given)	-2	-7
Cn1cc(OCc2ccccc2)c(=O)cc1C(=O)NCc1ccncc1	3	0
COc1cccc(C(=O)Nn2cnc3c(cnn3-c3ccccc3)c2=O)c1	3	-1
COCCCN(CC(=O)N(CCc1c[nH]c2ccccc12)Cc1ccc(F)cc1)C(=O)c1ccc(Br)cc1	24	19
CSc1ccc(C(NC(=S)Nc2cccc(C(F)(F)F)c2)c2cccc(Cl)c2Cl)cc1 (stereo not given)	-11	-19
Cc1cc(N(C)Cc2ccsc2)nc(N2CCOCC2)n1	-3	-5
CCOc1ccccc1C1c2[nH]c3ccccc3c2CCN1C(=O)CCc1cnn(C)c1 (stereo not given)	5	-2
CCOC1CC(O)C12CCN(C(C(=O)OC)c1ccc(Br)cc1)CC2 (stereo not given)	5	2
Nc1nnnn1/N=C\c1c2ccccc2cc2ccccc12	0	-8
Cc1nn(C)c(C)c1CC(=O)Nc1ccc(N2CCCCCC2)cc1	-13	-10
CC(C)c1cc(NC(=O)CCn2nc3ccccn3c2=O)n[nH]1	7	6
COc1ccc(-c2cc(C(=O)NCc3ccc4c(c3)OCO4)c(C)n2-c2ccccc2Cl)cc1	11	14
CCN(CC)C(=O)C1CCN(Cc2nc(-c3cccc(Oc4ccccc4)c3)oc2C)CC1	13	1
Cn1c(=O)c2c(SCc3cccnc3)nc(-c3ccc(F)cc3)nc2n(C)c1=O	7	7
c1ccc2sc(COc3ccc4c(c3)OCO4)nc2c1	2	9
C=CC(C)(O)CN(CCC)Cc1c(C)nn(-c2ccccc2)c1Oc1ccc(C)cc1 (stereo not given)	-2	5
Cc1ccc(CN(Cc2ccc3c(c2)OCO3)C(=O)CN(CCN2CCOCC2)C(=O)Nc2ccc(C)c(C)c2)o1	-6	-3
CN(C)CCCN(C(=O)CN1C(=O)c2ccccc2C1=O)c1nc2c(F)cccc2s1	4	1
CCOc1ccccc1-c1nc(Cn2nnc(C(=O)Nc3ccc(C)cc3C)c2C)c(C)o1	1	0
O=C(Cc1cccc2ccccc12)NNC(=O)c1ccccn1	-8	-10
Cc1ccc(NC(=O)C2(C)CCN2Cc2ccc3c(c2)OCCO3)cc1 (stereo not given)	-2	-3
CN(Cc1ccccc1)C1(CNC2CCSCC2)Cc2ccccc2C1	4	-6
Cc1noc(-c2cccc(C(F)(F)F)c2)c1C(=O)NCCC1(C)OCCO1	4	2
CCOc1ccc(-n2nnc3c(N4CCN(C(=O)C(C)Oc5ccccc5)CC4)ncnc32)cc1 (stereo not given)	-3	-7
COc1ccc(/C=N\NC(=O)CSc2nc3ccccc3s2)cc1O	-5	-13
CCCNC(=O)N(CCOC)Cc1nccn1Cc1ccccc1Cl	20	17
Cn1c(-c2ccco2)nc2cnc(Nc3ccncc3)cc21	2	2
C=CCN(C(=O)c1ccc(-c2ccc3c(c2)OCO3)s1)C1CCCCC1	5	7
O=C(N=Nc1c(O)[nH]c2ccccc12)c1ccccn1	-2	-8
Cc1ccc(-c2nc(Cn3nnc4ccccc4c3=O)cs2)cc1	4	2
O=C(CN1CN(c2ccccc2)C2(CCN(C(=O)Nc3ccc(Cl)cc3Cl)CC2)C1=O)NCc1ccc2c(c1)OCO2	18	24
CC1=CN2C(=O)NC(C(F)(F)F)(C(F)(F)F)N=C2C=C1	15	7
CC(C)c1nc(CNC(=O)c2ccc(N3CCCOCC3)nc2)no1	-4	-2
COc1cc(C(=O)NCc2cccn2C)cc(Cl)c1OC	3	0
O=C(c1ccc(Cl)cc1)N(CCN1CCOCC1)Cc1nccn1Cc1ccc(Cl)cc1Cl	2	1
NC(=O)c1cncc(-c2cc(NC3CCCC3)nc3[nH]ccc23)c1	11	6
CCCN(Cc1nc2scc(-c3ccc(Cl)cc3)c2c(=O)[nH]1)CC(C)O (stereo not given)	2	6
COCCN1C(=O)[C@]2(C)[C@H](c3ccccc31)[C@@H](C(N)=O)CN2C(=O)c1cc2ccccc2s1	11	11
COc1ccc(Cn2c(C)cc(O)c(C(c3ccncc3)N3CCN(C)CC3)c2=O)cc1 (stereo not given)	9	0
Cn1nc(C(=O)Nc2cc(C(F)(F)F)ccc2NC2CCCCC2)ccc1=O	4	0
Cc1c(C(=O)N(C)Cc2ccccc2Br)sc2nc3n(c(=O)c12)CCC3	-6	-9
OC1(C#CCN2CCOCC2)CCCCC1	7	4
CCCCCCc1cc2cc(-c3nnc(-c4ccc(Br)cc4)o3)c(=O)oc2cc1O	4	-2
O=C(O)c1nn(-c2ccc(Cl)cc2)c(=O)n(Cc2cccnc2)c1=O	19	26
CC(=O)OC1C(=O)O[C@@H]2[C@@H](OC(C)=O)[C@H](OC(C)=O)O[C@H]12 (stereo not given in full)	6	7
O=C(CN1CCOCC1)NCc1ccc(F)cc1	10	4
CCc1nc2ccc(C(=O)N(C)CCN(C)C)cn2c1N(C)CCCc1ccccc1	18	15
CN1C(=O)NC(c2cccc(F)c2)C2=C1CN(CCc1ccccn1)C2=O (stereo not given)	-1	7
CC(C)CNC(=O)NC(=O)C(C)N1CCN(c2ccccc2)CC1 (stereo not given)	2	9
CC(C)c1nc(CONC(=O)CCC2CCCCC2)no1	7	4
O=C1NC2(CCCC2)C(=O)N1Cc1cc2c(cc1Br)OCCO2	1&3	1&9
Cc1cc2nc(Oc3cccc4c3OC(C)(C)C4)c3ccccc3n2n1	1	2
CCN1C(=O)/C(=C\c2cccc(OCCO)c2)N(C)C1=S	4	3
O=C1[C@@H]2C[C@H](O)CCN2C(=O)CN1CCc1ccccn1	22	8
O=C(NCc1cn[nH]n1)Nc1cccc(OC(F)F)c1	-12	-10
Fc1ccc(CN2CCN(c3cc(Oc4ccc(F)cc4Cl)ncn3)CC2)cc1	0	1
CC(C)Nc1ncccc1C(=O)NC(c1ccccc1)c1ccccc1	21	9
C[C@H](C(=O)NCCCN1CCOCC1)N1Cc2ccc(N3CCOCC3)nc2C1=O	5	3
C=CCn1c(SCC(=O)NC2CCCC2)nnc1C1CCCCC1	2	7
New compounds follow.
SMILES	NPYLR7 agonist	NPYLR7 agonist max-min
CC1CCN(c2ccc(NC(=O)c3ccc(Br)cc3)cc2C(=O)NC2CC2)CC1	26	28
N#CCCCSc1nc2cc(Cl)ccc2c(=O)n1CC1CCCO1 (stereo not given)	0	-2
CCc1nc2ccc(C(=O)NCCC(C)C)cn2c1N(CC)Cc1cccc(Br)c1	22	15
CC(C)(C)c1ccc(-n2ncc3c2CCCC3NC(=O)CCN2CCCCO2)cc1 (stereo not given)	4	-3
CN(CCCn1ccnc1)C(=O)C1CCN(C(=O)OC(C)(C)C)CC1	3	0
COc1cccc(C(=O)N(CC(C)(C)C)CC(F)(F)F)n1	-6	-5
CCOC(=O)N1CCN(C(=O)c2cc3n(n2)CCN(Cc2ccc(Cl)c(Cl)c2)C3=O)CC1	1	25
CN1CCN(C(=O)c2cccc(Nc3c(Oc4cccc(Cl)c4)cnn(-c4ccccc4)c3=O)c2)CC1	6	10
CCOC(=O)C1C(=N)OC2=C(C(=O)CC(c3ccccc3Cl)C2)C1c1ccccc1Cl (stereo not given)	-10	-17
COc1ccc(-n2ccc3c(cnc4nc(C)nn43)c2=O)c(OC)c1	5	10
NS(=O)(=O)c1cccc(S(=O)(=O)NCCc2cccc(F)c2)c1	2	1
CCCn1nnnc1NCc1cccn1C	11	6

Grouped by structure: those above with a furan ring, fused or not (2)
SMILES	NPYLR7 agonist	NPYLR7 agonist max-min
Cc1ccc(CN(Cc2ccc3c(c2)OCO3)C(=O)CN(CCN2CCOCC2)C(=O)Nc2ccc(C)c(C)c2)o1	-6	-3
Cn1c(-c2ccco2)nc2cnc(Nc3ccncc3)cc21	2	2

(further entries)
SMILES	NPYLR7 agonist	NPYLR7 agonist max-min
Cc1ccc2c(=O)c(C(=O)c3ccccc3C)coc2c1	4	2
CC(=O)c1[nH]c(C)c(C(=O)N2CCCN(c3ccncc3)CC2)c1C	23	15
O=C(NNc1cccc(Cl)n1)c1ccc(Cl)nc1	6	1
COc1ccc(CCN=C(NC(=O)c2ccc(C)cc2)OCC(C)C)cc1OC	-5	5
CC1C(=O)N(c2ccccc2F)CCN1C(=O)Cc1ccccc1 (stereo not given)	-2	7
CN(Cc1ccccc1)C(=O)CNC(=O)N1CCCCCCC1	8	8
COc1ccc(CNC(=O)c2cn(Cc3ccccn3)c(=O)s2)cc1OC	15	6
Cc1ccc(CNC(=O)c2cnc3c(-c4ccc(C(C)C)cc4)cnn3c2C)o1	28	36
CC(=O)Nc1c(-c2cc(=O)oc3c(C)c(C)ccc23)oc2ccccc12	-1	-2
CCOc1ccc(-n2c(C)cc(C(=O)COc3cccc(-n4cnnn4)c3)c2C)cc1	-4	-11
COc1ccc(C(=O)N2C[C@@H](O)[C@H](NC3CCC(O)CC3)C2)cc1 (stereo not given in full)	7	-4
COc1ccc(NC(=O)C2CCN(C(=O)[C@@H]3CCCN3C(=O)Nc3ccc(-c4ccccc4)cc3)CC2)cc1	-8	-1
O=C(Nc1ccc(N2CCCC2)c(C(=O)NCc2ccc(F)cc2)c1)c1ccc(Cl)cc1Cl	21	33
CCOc1ncccc1C(=O)N1CCC(c2ccc(O)cc2)CC1	-1	-2
CCOC(=O)c1c(C)n(-c2ccccc2)c2ccc(OC(=O)Cc3ccccc3)cc12	-4	-10
CCOc1ccccc1-n1nnnc1-c1ccc2ccccc2n1	-7	-6
OC(c1cccnc1)c1nc(-c2cccc(F)c2)cs1 (stereo not given)	7	3
COc1ccc(C(=O)C2CCCN(C(=O)c3cc(Cl)ccc3F)C2)cc1F (stereo not given)	8	-6
CCCCCCn1c(SCCC)nc2c1c(=O)[nH]c(=O)n2C	-7	-8
NC1(CNC(=O)c2ccsc2)CCCCCC1	17	11
CN(C)c1ncccc1CNC(=O)Cc1cn(C)c2ccccc12	0	-1
O=C(c1ccc(=O)[nH]c1)N(CCc1ccccc1)C1CCOC1 (stereo not given)	1	-1
O=C(CCC(=O)N1CCN(CC2CCCO2)CC1)NC1CCCC1 (stereo not given)	-5	-7
O=C(CCc1ccc2c(c1)OCO2)N1CCC2(CC1)C(=O)NCN2c1ccccc1	-9	-14
CC(=O)N1CCC(Oc2ccc(Cl)cc2C(=O)N2CCCC2c2nccs2)CC1 (stereo not given)	10	3
O=C(CN(C(=O)Nc1ccc(F)c(F)c1)C1CC1)N(CCc1c[nH]c2ccccc12)Cc1ccc(C(F)(F)F)cc1	-7	-5
CN1CCN(c2cc(OCCNC(=O)Nc3ccc(OC(F)(F)F)cc3)ncn2)CC1	-2	-5
CCc1cc(C(C)NC(=O)c2cn(CC)nc2C)on1 (stereo not given)	0	-3
O=C(Nc1ccc(F)cc1Cl)c1ccc2c(c1)OCO2	17	11
CCOc1ccc(CNc2ccccc2OCC)nc1	1	-2
COc1ccc(C(=O)Nc2c3c(nn2C(C)(C)C)CSC3)c(OC)c1	-1	-1
CC(C)(C)c1ccc(-c2ccnc3nc(N4CCN(S(=O)(=O)c5ccccc5C#N)CC4)nn23)cc1	4	3
O=c1c(N=Nc2ccccc2Cl)c(-c2ccccc2)[nH]n1-c1nc(-c2ccccc2)cs1	8	18
Cc1cc(C)c(CN2CCCN(C(=O)C3CCC3)CC2)cc1C	-4	-5
CN(C)c1ccc(NC(=O)C2CCC2)cc1CN(CC1CC1)C(=O)c1ccc(F)cc1	3	7
COCC(O)CNC(=O)CSc1ccccc1C (stereo not given)	0	-2
C=CCOc1c(OC)ccc2c1CN(C1CCCC1)C(=O)CCN2CC(O)Cc1ccccc1 (stereo not given)	1	1
CS(=O)(=O)N1CCC(Oc2cccc(C(=O)N3CCc4sccc4C3)c2)CC1	-3	-5
O=C(O)C1(c2ccc(Cl)c(Cl)c2)CCC1	-4	-4
Cc1ccnn1CCC(=O)N1CCCC(C(=O)c2ccc(-c3ccccc3)c(F)c2)C1 (stereo not given)	-10	-10
COCCCNC(=O)CC(c1cccc([N+](=O)[O-])c1)c1c[nH]c2ccccc12 (stereo not given)	-3	1
COc1ccccc1/C=N\Nc1cc(N2CCOCC2)nc(N2CCOCC2)n1	-5	-9
CCCc1cccc(C)c1O	0	-1
Cc1nc(CNC(C)(C)c2ccc(Cl)cc2)cs1	6&7	3&8
CC(=O)NC1CCCN(c2ncnc3ccc(F)cc23)C1 (stereo not given)	-2	-5
CS(=O)(=O)Nc1cc(C(F)(F)F)ccc1N1CCCCC1	6	6
Cc1cc(NC(=O)CCN2C(=O)/C(=C/c3ccccc3)SC2=S)no1	-1	-4
Cc1nc(C)c(C(=O)N2CCN(S(=O)(=O)c3ccc(Br)s3)CC2)s1	-5	-7

Next section, starting with the last five of the part before.
SMILES	NPYLR7 agonist	NPYLR7 agonist max-min
Cc1nc(CNC(C)(C)c2ccc(Cl)cc2)cs1	6&7	3&8
CC(=O)NC1CCCN(c2ncnc3ccc(F)cc23)C1 (stereo not given)	-2	-5
CS(=O)(=O)Nc1cc(C(F)(F)F)ccc1N1CCCCC1	6	6
Cc1cc(NC(=O)CCN2C(=O)/C(=C/c3ccccc3)SC2=S)no1	-1	-4
Cc1nc(C)c(C(=O)N2CCN(S(=O)(=O)c3ccc(Br)s3)CC2)s1	-5	-7
O=c1c2ccccc2nnn1CSc1ccccc1F	-5	-5
CC1CCC(C(=O)NC2CCc3[nH]c4ccc(Br)cc4c3C2)CC1 (stereo not given)	2	3
Cc1nnc2ccc(N3CCN(C(=O)Nc4ccc5c(c4)OCO5)CC3)nn12	3	9
CCn1cc(NC(=O)NCc2ccc(OC)cc2)c2ccccc21	1	0
CCS(=O)(=O)c1ccc(NC(=O)COc2cccc3ccccc23)cc1	6	3

Exported with each value named: part of the list above
CCn1cc(NC(=O)NCc2ccc(OC)cc2)c2ccccc21
  NPYLR7 agonist = 1; NPYLR7 agonist max-min = 0

CCS(=O)(=O)c1ccc(NC(=O)COc2cccc3ccccc23)cc1
  NPYLR7 agonist = 6; NPYLR7 agonist max-min = 3
